Bioassay records as filed in PubChem.
RN4220 kill: S. aureus RN4220 growth inhibition. 330,000 tested, 0.33% active. inhibition, % (concentration not given with the values). OD600, 16 h;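 active = z-score of -3 or lower and OD600 up to 0.18 on both plates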;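 also: plate controls were untreated cells for no effect and reference antibiotic for full effect; stock transfer was 100 nL into about 80 µL; one replicate is shown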
BJeLR lethal: BJeLR cell viability loss; BJeLR (HRASV12) viability, CellTiter-Glo ATP luminescence, 48 h; reference of the scale not given here; inhibition, % (no concentration beside the values); 300,000 tested, 0.17% active; AID 1554;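 active = replicate mean above 50%; inconclusive = above 50% but judged a plate artefact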;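 also: 50 nL library stock added to about 25 µL; numbers are from one replicate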
Bead autofluor: compound fluorescence in toxin protease inhibitor counterscreen. compound autofluorescence counterscreen, microsphere flow cytometry; active compounds read high. 360,000 tested, 3.1% active. AID 624483. fluorescence intensity (concentration not given with the values);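 active = at least 3 SD above the mean of all compounds, about 16000 in these data; inconclusive = too few beads counted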;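 also: 100 nL of 1 mM stock went into each well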
Mtb hypoxia rep: Mtb hypoxia fluorescent reporter inhibition; fluorescence inhibition, % (test concentration not listed); AID 1159583; M. tuberculosis hypoxia-regulated fluorescent reporter, fluorescence; 300,000 tested, 0.1% active;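 active = 35 to 45% if threefold the growth effect, above 45% if 1.5-fold the growth effect; inactive = the rest, general growth blockers included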;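 also: wells of about 50 µL received 100 nL stock; 0% = vehicle wells and 100% = reference inhibitor wells; whole bacteria with a GFP reporter of the hypoxia response; strong numbers were not always called active; many hits fall short of the cut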
Sa ugtP lethal: growth inhibition of S. aureus ugtP deletion strain | S. aureus RN4220 ugtP deletion, OD600 growth, 16 h; some inactives read as strong as hits | growth inhibition, % (test concentration not listed) | 330,000 tested, 0.54% active;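 active = z-score under -3 and OD600 up to 0.15 on both plates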;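 also: plate controls were untreated wells for no effect and antibiotic for full effect; wells of about 80 µL received 100 nL stock; the first replicate is given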
PrP 5UTR inh: suppresses PrP 5' UTR mRNA reporter expression; cell-based PrP 5' UTR mRNA reporter, plate reader; inhibition, % (no concentration beside the values); 340,000 tested, 0.35% active; AID 488862;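 active = every replicate at 50% or more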;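 also: 0 = median of the neutral control wells; tested in H4 reporter cells; numbers are from one replicate; inactives centre near -14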
Mtb hypoxia rep growth: second read-out of Mtb hypoxia rep, no call of its own (marks repeat the call); growth inhibition, %; measured here: M. tuberculosis growth (absorbance);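 0% = vehicle and 100% = reference antibiotic; read after six days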
* = called active by the depositor.

Screening O=[N+]([O-])c1cc(/C=N/n2c(-c3cccnc3)n[nH]c2=S)ccc1Cl returned BJeLR lethal -13.9, Bead autofluor 2060 and PrP 5UTR inh -25.8.
Screening CC1(C)Cc2c(sc(NC(=O)COc3ccc(Cl)cc3)c2C(N)=O)C(C)(C)N1 returned RN4220 kill 0.6, BJeLR lethal 4.1, Bead autofluor 5367, Mtb hypoxia rep 9.6, Sa ugtP lethal 5.5, PrP 5UTR inh -19.4 and Mtb hypoxia rep growth 10.8.
O=C(CCNC(=O)c1ccccc1Cl)Nc1nc(-c2ccccc2Cl)cs1 was read as RN4220 kill -3.1, BJeLR lethal 3.7, Bead autofluor 2583, Mtb hypoxia rep 5.3, Sa ugtP lethal -10.9, PrP 5UTR inh -45.7 and Mtb hypoxia rep growth 0.5.
`CCCCn1cnc2c(c(-c3ccccc3)c(-c3ccccc3)n2Cc2ccco2)c1=N` gave RN4220 kill 1.3, BJeLR lethal 62.3*, Bead autofluor inconclusive, Mtb hypoxia rep 10.6, Sa ugtP lethal 0.5 and Mtb hypoxia rep growth 8.0.
For O=C(CNC(=O)c1ccc(Cl)cc1Cl)OCN1C(=O)c2ccccc2C1=O the results were RN4220 kill 0.8, BJeLR lethal -2.0, Bead autofluor 13134, Mtb hypoxia rep 5.5, Sa ugtP lethal 3.6, PrP 5UTR inh -2.2 and Mtb hypoxia rep growth 2.0.
For COc1ccccc1OCCn1ccnc1 the results were RN4220 kill -0.3, BJeLR lethal 6.2, Bead autofluor 4190, Mtb hypoxia rep 13.1, Sa ugtP lethal 3.7, PrP 5UTR inh -11.1 and Mtb hypoxia rep growth -3.0.
`COC(=O)Cc1cc(=O)[nH]c(N=C(N)Nc2ccc(C)cc2)n1` gave RN4220 kill 2.7, Mtb hypoxia rep -6.7, Sa ugtP lethal 17.6 and Mtb hypoxia rep growth 1.3.
Cc1csc(SCc2nc3scc(-c4ccccc4)c3c(=O)[nH]2)n1 was read as RN4220 kill 3.7, BJeLR lethal -3.5, Bead autofluor 5227, Mtb hypoxia rep 5.0, Sa ugtP lethal 4.2, PrP 5UTR inh -33.6 and Mtb hypoxia rep growth 7.2.
Screening CCc1c(C)c(C#N)c2nc3ccccc3n2c1NCc1ccco1 returned RN4220 kill 0.4, BJeLR lethal -0.7, Bead autofluor 2666, Sa ugtP lethal 1.7 and PrP 5UTR inh -40.1.
Nc1n[nH]c(C2CCCCC2)n1 was read as RN4220 kill 3.6, BJeLR lethal -7.6, Bead autofluor 4027, Mtb hypoxia rep 10.5, Sa ugtP lethal -0.8, PrP 5UTR inh -28.4 and Mtb hypoxia rep growth 9.0.
CCn1c(=O)cc(SCC(=O)Nc2cc(OC)c(OC)c(OC)c2)c2ccccc21 was read as RN4220 kill 0.7, BJeLR lethal -8.3, Bead autofluor 9451, Mtb hypoxia rep -0.3, Sa ugtP lethal -11.4, PrP 5UTR inh -14.7 and Mtb hypoxia rep growth 1.5.
`COc1ccc(-c2nc(N3CCN(C)CC3)sc2-c2ccc(OC)cc2)cc1` gave RN4220 kill -4.5, BJeLR lethal -3.9, Bead autofluor 5204, Mtb hypoxia rep -3.0, Sa ugtP lethal 99.0*, PrP 5UTR inh -3.9 and Mtb hypoxia rep growth 8.6.
`COc1ccc(/C=C2/CCCC(C(=O)C(F)(F)F)=C2O)cc1OC` gave RN4220 kill 7.4, BJeLR lethal 0.6, Bead autofluor 3807, Mtb hypoxia rep 1.5, Sa ugtP lethal -0.1, PrP 5UTR inh -35.9 and Mtb hypoxia rep growth -1.7.
Screening CC1=C(C#N)C(NC(=O)C2CCCCC2)(C(F)(F)F)C(=O)N1 (centres undefined) returned RN4220 kill 1.8, BJeLR lethal 1.4, Bead autofluor 22461*, Mtb hypoxia rep -0.1, Sa ugtP lethal 2.5, PrP 5UTR inh -1.9 and Mtb hypoxia rep growth -6.2.
`O=C(NC12CC3CC(CC(C3)C1)C2)OC1CN2CCC1CC2` (centres undefined) gave RN4220 kill -1.7, BJeLR lethal 3.4, Bead autofluor 3967, Mtb hypoxia rep -3.3, Sa ugtP lethal -1.0 and Mtb hypoxia rep growth 12.4.
Screening Cc1ccc(C(=O)O)cc1NC(=S)NC(=O)c1ccc(-c2ccccc2)cc1 returned RN4220 kill 20.3, BJeLR lethal 9.3, Bead autofluor 3706, Mtb hypoxia rep 0.6, Sa ugtP lethal 2.6, PrP 5UTR inh -10.7 and Mtb hypoxia rep growth 1.0.
Screening COc1ccc(C(=O)Nc2ccc(NC(=O)c3cccs3)c(OC)c2)cc1Cl returned RN4220 kill -3.1, Bead autofluor 4422, Mtb hypoxia rep -1.1, Sa ugtP lethal 2.8, PrP 5UTR inh -24.5 and Mtb hypoxia rep growth -2.6.
For NC(=O)c1cnn(C2CCS(=O)(=O)C2)c1 (centres undefined) the results were RN4220 kill 3.7, BJeLR lethal -4.5, Bead autofluor 2589, Mtb hypoxia rep 1.4, Sa ugtP lethal 7.7, PrP 5UTR inh -7.7 and Mtb hypoxia rep growth 6.1.
Cc1cc(C)cc(NC(=O)CNC(c2ccccc2)c2ccccc2)c1 was read as RN4220 kill 0.5, BJeLR lethal -8.4, Bead autofluor 5893, Mtb hypoxia rep -0.2, Sa ugtP lethal 21.4, PrP 5UTR inh 0.9 and Mtb hypoxia rep growth -3.8.
CC(=O)NCCc1ccc(C(=O)COC(=O)c2cccn2C)cc1 was read as RN4220 kill 0.0, Bead autofluor 3722, Mtb hypoxia rep 10.7, Sa ugtP lethal -1.9, PrP 5UTR inh -32.2 and Mtb hypoxia rep growth 11.2.
Screening Cc1ccc(CN2CC(=O)N3C4c5ccccc5OCC4C(c4ccccc4)[C@]3(C)C2=O)cc1 (some centres undefined) returned RN4220 kill -3.2, Mtb hypoxia rep 0.1, Sa ugtP lethal -11.2 and Mtb hypoxia rep growth 9.0.
Screening O=C(CSc1nnc(-c2cccs2)n1-c1ccccc1)N1CCCc2ccccc21 returned RN4220 kill 0.3, BJeLR lethal 5.7, Bead autofluor 9318, Mtb hypoxia rep -10.0, Sa ugtP lethal -9.5, PrP 5UTR inh -57.8 and Mtb hypoxia rep growth 0.1.
For CC(=O)c1ccc(OCc2cc(C(=O)N(C)Cc3ncc(C)[nH]3)no2)cc1 the results were RN4220 kill 2.9, BJeLR lethal -7.2, Bead autofluor 6145, Mtb hypoxia rep 14.1, Sa ugtP lethal -1.0, PrP 5UTR inh -18.0 and Mtb hypoxia rep growth 1.0.
For CC(=O)NC1=NN(C(C)=O)C(C)(CS(=O)(=O)c2ccc3ccccc3c2)S1 (centres undefined) the results were RN4220 kill 4.1, BJeLR lethal 0.3, Bead autofluor 3194, Mtb hypoxia rep 2.5, Sa ugtP lethal -6.5, PrP 5UTR inh -9.6 and Mtb hypoxia rep growth 9.9.
COC(=O)CCN(C(=O)c1cc(OC)c(OC)c(OC)c1)c1ccccn1 was read as RN4220 kill 4.0, BJeLR lethal 3.2, Bead autofluor 9869, Mtb hypoxia rep -0.2, Sa ugtP lethal 4.8, PrP 5UTR inh -13.7 and Mtb hypoxia rep growth 2.9.
O=c1[nH]ncn1-c1ccc(Br)cc1 was read as RN4220 kill 2.7, BJeLR lethal 4.3, Bead autofluor 4754, Mtb hypoxia rep 8.3, Sa ugtP lethal -0.5, PrP 5UTR inh -23.8 and Mtb hypoxia rep growth 1.6.
Screening CC(C)c1onc(C(=O)NCc2cccs2)c1[N+](=O)[O-] returned RN4220 kill -2.0, BJeLR lethal -1.5, Bead autofluor 2241, Mtb hypoxia rep 0.3, Sa ugtP lethal 7.3, PrP 5UTR inh -21.6 and Mtb hypoxia rep growth 3.6.
COc1ccc(NC(C)=O)cc1S(=O)(=O)N1CCn2cccc2C1C (centres undefined) was read as RN4220 kill 3.6, Bead autofluor 2965, Mtb hypoxia rep 5.4, Sa ugtP lethal 7.8, PrP 5UTR inh -14.2 and Mtb hypoxia rep growth -1.3.
For COC(=O)Cc1[nH]nc2c1C(C1C=CCCC1)C(C#N)=C(N)O2 (centres undefined) the results were RN4220 kill -7.1, BJeLR lethal -13.2, Bead autofluor 3218, Mtb hypoxia rep 15.1, Sa ugtP lethal -6.9, PrP 5UTR inh -12.8 and Mtb hypoxia rep growth 7.1.
Screening C=CCNC(=S)Nc1cccc(N)c1 returned RN4220 kill 8.5, BJeLR lethal 4.6, Bead autofluor 3465, Mtb hypoxia rep 13.9, Sa ugtP lethal -2.2, PrP 5UTR inh -21.2 and Mtb hypoxia rep growth 10.7.

Random excerpt: two compounds from above
Screening Cc1ccc(C(=O)O)cc1NC(=S)NC(=O)c1ccc(-c2ccccc2)cc1 returned RN4220 kill 20.3, BJeLR lethal 9.3, Bead autofluor 3706, Mtb hypoxia rep 0.6, Sa ugtP lethal 2.6, PrP 5UTR inh -10.7 and Mtb hypoxia rep growth 1.0.
O=c1[nH]ncn1-c1ccc(Br)cc1 was read as RN4220 kill 2.7, BJeLR lethal 4.3, Bead autofluor 4754, Mtb hypoxia rep 8.3, Sa ugtP lethal -0.5, PrP 5UTR inh -23.8 and Mtb hypoxia rep growth 1.6.

(further entries)
CSc1cccc(NS(=O)(=O)c2ccc(-c3coc(C)n3)cc2)c1 was read as RN4220 kill 2.7, BJeLR lethal -2.0, Bead autofluor 5570, Mtb hypoxia rep -5.7, Sa ugtP lethal -9.5, PrP 5UTR inh -4.5 and Mtb hypoxia rep growth 11.4.
COc1ccc(C=NNC(=O)c2ccc(NS(=O)(=O)c3cccs3)cc2)cc1 was read as RN4220 kill -6.6, Mtb hypoxia rep 4.1, Sa ugtP lethal -9.4 and Mtb hypoxia rep growth 6.2.
For CCN(CC(=O)NCc1cccs1)C(=O)c1ccc(S(=O)(=O)Nc2cccc(C)c2C)cc1 the results were RN4220 kill 3.2, BJeLR lethal -2.8, Bead autofluor 5327, Mtb hypoxia rep 5.5, Sa ugtP lethal 1.6, PrP 5UTR inh -24.6 and Mtb hypoxia rep growth 3.4.
Screening CCN1CCN(CCCNC(=O)c2csc3c2CCCCC3)CC1 returned RN4220 kill 2.7, BJeLR lethal 12.0, Bead autofluor 9445, Mtb hypoxia rep 13.1, Sa ugtP lethal 13.2, PrP 5UTR inh -21.3 and Mtb hypoxia rep growth -0.1.
`CCOC(=O)C1=C(C)NC(C)=C(C(=O)OCC)C1C(=O)OCC(=O)N1CC(C)OC(C)C1` (centres undefined) gave RN4220 kill 1.0, Bead autofluor 3843, Mtb hypoxia rep -0.8, Sa ugtP lethal 0.2, PrP 5UTR inh 11.1 and Mtb hypoxia rep growth 3.9.
Cc1cccc(CCNC(=O)C2CCCN(S(=O)(=O)c3cccc4nsnc34)C2)c1 (centres undefined) was read as RN4220 kill 3.3, BJeLR lethal -3.6, Bead autofluor 3121, Sa ugtP lethal 2.0 and PrP 5UTR inh -7.6.
O=C(CCN1C(=O)S/C(=C\c2cccs2)C1=O)NC1=NCCS1 was read as RN4220 kill -3.1, BJeLR lethal -13.5, Bead autofluor 2742, Mtb hypoxia rep -2.0, Sa ugtP lethal 17.9, PrP 5UTR inh -26.0 and Mtb hypoxia rep growth -8.1.
`N=C1/C(=C\c2ccc(OC(=O)c3ccccc3)cc2)C(=O)N=C2SC(N3CCOCC3)=NN12` gave RN4220 kill -10.4, BJeLR lethal -5.3, Bead autofluor 4956, Mtb hypoxia rep 0.1, Sa ugtP lethal -18.8, PrP 5UTR inh -47.7 and Mtb hypoxia rep growth 7.5.
COc1ccc(NC(=O)c2cccc(N3C(=O)C4C5C=CC(C5)C4C3=O)c2)c(OC)c1 (centres undefined) was read as RN4220 kill -2.0, BJeLR lethal 9.4, Bead autofluor 5724, Mtb hypoxia rep -7.1, Sa ugtP lethal -1.9, PrP 5UTR inh -1.7 and Mtb hypoxia rep growth 2.0.
Screening Cc1ccc(NC(=O)CSc2nc3ccccc3nc2N2CCCC2)cc1 returned RN4220 kill -4.0, BJeLR lethal -5.2, Bead autofluor 5420, Mtb hypoxia rep 6.1, Sa ugtP lethal -10.0, PrP 5UTR inh -35.9 and Mtb hypoxia rep growth 9.4.
For COc1cccc(NC(=O)CN(C)C(=O)c2ccc(-c3ccccc3Cl)o2)c1 the results were RN4220 kill -1.9, BJeLR lethal -12.2, Bead autofluor 5446, Mtb hypoxia rep -1.4, Sa ugtP lethal -11.5, PrP 5UTR inh -30.1 and Mtb hypoxia rep growth -10.0.
Screening CCNC(=O)C(C)Sc1ccc(Cl)cc1 (centres undefined) returned RN4220 kill 6.1, BJeLR lethal 3.9, Bead autofluor 3379, Mtb hypoxia rep 7.7, Sa ugtP lethal 6.1, PrP 5UTR inh -8.5 and Mtb hypoxia rep growth -2.1.
